# Compound activity: PubChem BioAssay, Southern Research Specialized Biocontainment Screening Center
# Mtb bLac sens = beta-lactam sensitization of Mtb H37Rv | inhibition, % at 25 µM | M. tuberculosis H37Rv growth with meropenem, percent inhibition; hits of this screen are not shown here | 0.27% of 330,000 active;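 active = about 74% or more and at least 40 points above the plate without the antibiotic, then above 30% in a dose series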;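 also: growth measured after seven days incubation then overnight dye step; 0% = bacteria only wells and 100% = bacteria with antibiotic; twin plates without the antibiotic show which effects depend on it; some results filed as inactive read as strong as hits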
# * = called active by the depositor.
SMILES,Mtb bLac sens
COc1cc([C@@H]2Oc3cc(C4Oc5cc(O)cc(O)c5C(=O)[C@H]4O)ccc3O[C@H]2CO)ccc1O (some centres not stated),6.8
COC(=O)C1=CO[C@@H](O[C@@H]2O[C@H](CO)[C@@H](O)[C@H](O)[C@H]2O)C2C1C[C@H](O)[C@@H]2C (some centres not stated),-5.1
Oc1cc2c(cc1O)[C@H]1c3ccc(O)c(O)c3OC[C@@]1(O)C2,0.0
C[N+]1(C)CCC(=C(c2ccccc2)c2ccccc2)CC1,-0.6
CC1(C)O[C@H]2CC(=O)OC[C@@]23C1CC(=O)[C@]1(C)C3CC[C@@]2(C)[C@H](c3ccoc3)OC(=O)[C@H]3O[C@]321 (some centres not stated),-5.5
CCCCNc1ccc(C(=O)OCCOCCOCCOCCOCCOCCOCCOCCOCCOC)cc1,-3.1
NOCC(=O)O,-3.2
N[C@@H](Cc1c[nH]c2ccc(O)cc12)C(=O)O,4.1
COc1cc(-c2oc3cc(O)cc(O)c3c(=O)c2O[C@@H]2O[C@H](COC3O[C@@H](C)[C@H](O)[C@@H](O)[C@H]3O)[C@@H](O)[C@H](O)[C@H]2O)ccc1O (some centres not stated),4.0
COc1ccccc1N1CCN(CCCN=C2CC(=O)N(C)C(=O)N2C)CC1,0.4
Cc1c(C(=O)O)c(O)cc2c1C(=O)c1c(O)c([C@@H]3O[C@H](CO)[C@@H](O)[C@H](O)[C@H]3O)c(O)c(O)c1C2=O,9.5

# 5 entries out of the list, sorted by SMILES length, ascending:
SMILES,Mtb bLac sens
C[N+]1(C)CCC(=C(c2ccccc2)c2ccccc2)CC1,-0.6
CCCCNc1ccc(C(=O)OCCOCCOCCOCCOCCOCCOCCOCCOCCOC)cc1,-3.1
COc1cc([C@@H]2Oc3cc(C4Oc5cc(O)cc(O)c5C(=O)[C@H]4O)ccc3O[C@H]2CO)ccc1O (some centres not stated),6.8
CC1(C)O[C@H]2CC(=O)OC[C@@]23C1CC(=O)[C@]1(C)C3CC[C@@]2(C)[C@H](c3ccoc3)OC(=O)[C@H]3O[C@]321 (some centres not stated),-5.5
COc1cc(-c2oc3cc(O)cc(O)c3c(=O)c2O[C@@H]2O[C@H](COC3O[C@@H](C)[C@H](O)[C@@H](O)[C@H]3O)[C@@H](O)[C@H](O)[C@H]2O)ccc1O (some centres not stated),4.0

# An excerpt; rates above refer to the full screens.
